# CBX7 AlphaScr – CBX7 chromodomain binding inhibitors, primary screen, biochemical, AlphaScreen | AlphaScreen His6-CBX7 / biotin-H3K27me3 peptide binding; hits give low values | 66,000 compounds, 1.1% hits | normalised signal (fraction of DMSO) (no concentration beside the values) | AID 1224903, 2016; in the data active = normalised signal below about 0.5;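 also: 100 nL library stock added to about 20 µL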
# Target sequence (O95931 whole entry, looked up): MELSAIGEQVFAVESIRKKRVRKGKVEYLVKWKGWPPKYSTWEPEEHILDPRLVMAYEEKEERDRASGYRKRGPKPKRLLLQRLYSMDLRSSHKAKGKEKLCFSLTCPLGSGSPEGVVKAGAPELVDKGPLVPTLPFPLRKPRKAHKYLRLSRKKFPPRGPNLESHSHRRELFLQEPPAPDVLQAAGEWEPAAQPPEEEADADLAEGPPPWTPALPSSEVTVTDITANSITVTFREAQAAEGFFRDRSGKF
# CBX7 AlphaScr z-score – recorded beside CBX7 AlphaScr, whose call it bears; z-score; measured here: z-score of CBX7 signal; some inactives read as strong as hits; reference of the scale not given here;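 same signal on another scale; lower means less binding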
# Starred values were filed as active, the others as inactive; & = joins results of further samples. Only part of the results is shown (hit frequency here may not be typical).
SMILES,CBX7 AlphaScr,CBX7 AlphaScr z-score
COc1ccc(-n2c(Cc3cc(=O)[nH]c(=O)[nH]3)nnc2SCC(=O)N2CCc3ccccc32)cc1,0.959,-0.631
O=C(Cc1c(C(=O)O)[nH]c2ccccc12)NCCN1CCN(c2ccccc2F)CC1,0.999,-0.0298
O=C(c1cc(-c2ccc(O)cc2)on1)N1CCN(c2ccccc2)CC1,0.999,-0.0247
CCCNC(=O)c1c[nH]c2ccc(S(=O)(=O)N(C)c3ccc(C)c(C)c3)cc2c1=O,1.08,0.78
CCc1cccc(NC(=O)CC2Oc3ccc(C)cc3NC2=O)c1 (stereo not drawn),1.05,1.96
COc1ccc(-c2nc(C#N)c(N3CCN(c4ccccc4)CC3)o2)cc1,0.882,-1.7
Cc1cc(N2C(=O)c3ccc(C(=O)N4CCCCCC4)cc3C2=O)no1,0.993,-0.188
COc1ccc(CCNC2CC(=O)N(c3ccc(F)cc3)C2=O)cc1OC (stereo not drawn),0.99,-0.245
Cc1nc2c(-c3ccc(F)cc3)c(C)nn2c(C)c1CCC(=O)Nc1ccccc1Cl,1.04,0.24
CC1CCCCC1NC(=O)CN1C(=O)CSc2ccccc21 (stereo not drawn),1.19,1.48
O=C(NCCc1ccc(Cl)cc1)c1ccc(CNS(=O)(=O)c2ccc(F)cc2)cc1,0.999,-0.0192
Cc1ccc(CCNC(=O)C2CCC(=O)N2Cc2ccccc2Cl)cc1 (stereo not drawn),1.03,0.866
Cc1ccc(NC(=O)CCc2nnc3ccc(N4CCC(C(N)=O)CC4)nn23)cc1C,0.966,-0.763
CCOc1ccc(NS(=O)(=O)c2ccc3[nH]cc(C(=O)NC4CCC(C)CC4)c(=O)c3c2)cc1 (stereo not drawn),0.635,-5.02
COCCNC(=O)c1cc2c(n(-c3ccccc3)c1=O)CC(C)(C)CC2=O,0.927,-0.305
COc1ccc2nc(NC(=O)C3CCCN(S(=O)(=O)c4cccc5cccnc45)C3)sc2c1 (stereo not drawn),1.01,0.139
CC1(C)OC2OC(C(=O)Nc3ccc(Cl)c(Cl)c3)C3OC(C)(C)OC3C2O1 (stereo not drawn),1.05,0.646
O=C(Nc1ccc(F)cc1F)N1CCCCC1c1cccnc1 (stereo not drawn),1.11,1.05
Cc1cccc(CSc2nc3ccncc3n2CC(=O)Nc2ccc(Br)cc2F)c1,1.14,2.03
COc1ccc2oc(=O)c(C(=O)Nc3cc(C)ccn3)cc2c1,1.05,0.358
Cc1ccc(-n2nc(C)c3c(C)c(CCC(=O)NCCN4CCN(C)CC4)c(C)nc32)cc1,1.31,2.37
CCN(C(=O)Cn1nc(Cc2ccncc2)c2ccccc2c1=O)c1cc(Cl)ccc1OC,0.943,-1.67
COc1cc(-c2nnc(SCC(=O)c3ccc(C)cc3)o2)cc(OC)c1OC,1.04,0.758
O=C(Nc1c(-c2ccccc2)nc2ccc(Cl)cn12)c1cccs1,0.863,-1.72
COc1ccc(OC)c(C(=O)c2coc3ccc(OCC(=O)O)cc23)c1,0.951,-0.951
COc1cc(OC)cc(C(=O)Nc2c3c(nn2-c2ccc(Cl)cc2)CSC3)c1,0.933,-1.65
COc1cc(C2C(=O)N(C3CCC(C)CC3)CC(=O)N2C2CCCCCCC2)ccc1OC(C)C (stereo not drawn),0.923,-0.217
COc1ccc(-c2[nH]c(-c3ccc(OC)c(OC)c3)nc2SCC(=O)Nc2ccc(F)cc2)cc1,0.9,-4.75
COc1ccc(Nc2cc(C(=O)NC3CCCCCC3)c3ccccc3n2)cc1,0.838,-1.93
Cc1ccc2nc(NS(=O)(=O)c3ccc(Cl)cc3)c(Nc3ccc4c(c3)n(C)c(=O)n4C)nc2c1,0.982,-0.46
CCOC(=O)c1c(NC(=O)COc2ccccc2C)sc2c1CCCCC2,0.92,-1.13
O=C(Cn1nnc(-c2ccccc2Cl)n1)Nc1ccccc1C(F)(F)F,1.04,1.11
COc1cccc(-c2nn(C)c3sc(C(=O)Nc4ccc(F)cc4)cc23)c1,1.15,1.89
NS(=O)(=O)c1ccc(Nc2nc(-c3ccc(Br)cc3)cs2)cc1,0.797,-3.26
COCCCNC(=O)CSc1nc(-c2ccccc2)[nH]c1-c1ccc(OC)cc1,1.01,0.286
Cc1ccc(-c2n[nH]c3c2C(c2ccc4c(c2)OCO4)N(c2ccc(F)cc2)C3=O)cc1 (stereo not drawn),0.891,-0.221
Cc1cc2nc(-c3ccc(C)c(N)c3)oc2cc1C,0.942,-1.71
Cc1oc(-c2ccc(Cl)cc2)nc1CN1CCCC(C(=O)NC(C)CCc2ccccc2)C1 (stereo not drawn),1.02,0.496
Cc1nc2cc(-c3ccc(Cl)cc3)nn2c(C)c1CCC(=O)Nc1cccnc1,1.1,1.91
CCC1Oc2ccc(C)cc2N(CC(=O)N2CCCCCC2)C1=O (stereo not drawn),1.02,0.395
Cc1cc(C(F)(F)F)n2nc(-c3ccc(Cl)cc3)cc2n1,1.1,1.93
CC12c3ccccc3C(c3ccccc31)C1C(=O)N(Cc3cccnc3)C(=O)C12 (stereo not drawn),1.08,1.93
O=C(CN1CCOCC1)NCC1(c2ccccc2)CCOCC1,0.869,-0.365
CCOCCCNC(=O)C(c1ccc(Cl)cc1)N1CCN(c2ccccc2)CC1 (stereo not drawn),0.958,-1.13
CCc1c(C)sc(NC(=O)c2cc(-c3ccc(F)cc3)on2)c1C#N,0.993,-0.00772
CC(C)(O)C#Cc1ccc(C(=O)NCc2ccc3c(c2)OCO3)cc1,0.877,-1.89
Cc1ccc(-c2csc3ncn(CC(=O)c4ccc(Cl)cc4)c(=O)c23)cc1,1.24,3.02
CCCCNC(=O)CN1C(=O)COc2ccc(Cl)cc21,0.852,-1.75
CCc1ccc(Nc2cc(C(=O)NC(C)CC)c3ccccc3n2)cc1 (stereo not drawn),1.07,1.88
Cc1nc2c(-c3ccc(F)cc3)c(C)nn2c(C)c1CCC(=O)Nc1ccccc1F,1.09,0.566
CCOC(=O)c1cc(-c2ccc(OC)cc2)n(CCC(=O)Nc2ccc(CC)cc2)c1C,0.945,-0.592
COc1ccc2c(c1)CCc1c(C(=O)Nc3cnn(Cc4ccc(F)cc4)c3)noc1-2,0.985,-0.314
O=C(NC1CCCC1)C1CCCN(c2nc3ccccc3o2)C1 (stereo not drawn),0.986,-0.423
CCN1CCN(c2ncc(C(=O)Nc3ccc(OC)cc3OC)c3ccccc23)CC1,1.44,0.903
COc1ccc(-c2nn(C)c(=O)c3ccccc23)cc1CNC(=O)c1ccc(C)cc1,0.924,-0.981
CCC(C(=O)Nc1c2c(nn1-c1ccc(C)cc1)CS(=O)(=O)C2)c1ccccc1 (stereo not drawn),1.07,0.46
CCN1C(=O)c2ccccc2S(=O)c2ccc(C(=O)NCCOC)cc21 (stereo not drawn),1.01,0.319
Cc1ccc(NC(=O)c2cc(-c3ccc(F)cc3)nc3ccccc23)cc1F,0.998,-0.117
O=C(NCc1cccc(Br)c1)C1CCN(C(=O)c2sccc2-n2cccc2)CC1,0.998,-0.0958
CCC(C)(C(=O)NC1CCCCC1)N(C(=O)C1CCC(=O)N1)c1ccccc1 (stereo not drawn),1.03,1.23
# (listing goes on)
SMILES,CBX7 AlphaScr,CBX7 AlphaScr z-score
Cc1c(C(=O)Nc2ccc(S(=O)(=O)N3CCCC(C)C3)cc2)oc2ccccc12 (stereo not drawn),1.06,1.54
COc1ccc(-c2cc(C(F)(F)F)nc(N3CCN(c4ccccc4)CC3)n2)cc1OC,1.02,1.03
Cc1ccc(C)c(NC(=O)C2CCCN(S(=O)(=O)c3cccc4cccnc34)C2)c1 (stereo not drawn),1.01,0.42
CC(c1cccnc1)N(C(=O)Nc1ccccc1)C1CCCCC1 (stereo not drawn),0.987,-0.619
Cc1ccc(-c2nc3ccc(Cl)cn3c2Nc2ccc3c(c2)OCCO3)cc1,0.883,-1.92
COc1cccc(NC(=O)c2sc(-c3ccccc3)nc2C)c1,1.13,0.36
CCCCCCc1cc2cc(-c3nnc(-c4ccc(C)cc4)o3)c(=O)oc2cc1O,0.864,-1.47
CCOC(=O)c1c(C2COc3ccccc3O2)csc1NC(=O)c1ccc(OC)c(OC)c1 (stereo not drawn),1.03,1.38
COc1ccc(C2CC(=O)C3=C(C2)Nc2ccccc2NC3c2c(F)cccc2Cl)cc1 (stereo not drawn),0.897,-0.695
CCOC(=O)c1cnc2c(OC)cccc2c1N1CCN(c2ccccc2)CC1,0.558,-0.497
Cc1ccc(NC(=O)Nc2ccc(F)cc2)nc1,0.898,-0.451
O=C(NC1CCCCCC1)c1cccc2c1C(=O)N(C1CCCCC1)C2,0.979,-0.172
CCOCCCNC(=O)c1ccc2c(c1)ncn2-c1cc(Cl)ccc1OC,1.02,0.235
CCOC(CNC(=O)c1ccc2c(c1)ncn2-c1cc(OC)ccc1OC)OCC,1.15,1.85
COc1ccc(C2C(C(=O)Nc3ccc(F)cc3)CCC(=O)N2c2ccc(OC)cc2)cc1 (stereo not drawn),1.03,0.585
Cc1cccc(Cc2c(C)nc3c(C(=O)NCc4ccc5c(c4)OCO5)cnn3c2C)c1,0.873,-1.68
CCC1=Nc2cc(C(=O)NCCCN3CCCCC3C)ccc2Sc2ccc(C)cc21 (stereo not drawn),0.901,-2.81
Cc1ccccc1Cc1c(C)nc2nc(SCC(=O)NCc3cccs3)nn2c1C,0.93,-0.122
O=C(NCCc1ccccc1)C1CCCN(S(=O)(=O)c2cccc3cccnc23)C1 (stereo not drawn),1,0.0392
CCCCCCCc1nc2c(=O)[nH]c3ccccc3c2o1,1.03,0.701
Cc1ccc(CNC(=O)c2ccc3c(c2)N(Cc2cc(C)ccc2C)C(=O)CS3)cc1,1.05,0.982
O=C(Nc1nc2c(s1)CCc1ccccc1-2)c1ccc(S(=O)(=O)N2CCCC2)cc1,1.03,1.32
CCOc1ccc(Nc2cc(C(=O)NCc3ccc4c(c3)OCO4)c3ccccc3n2)cc1,0.845,-2.43
CCc1ccc2c(c1)C(O)(CC(=O)c1ccc(-c3ccccc3)cc1)C(=O)N2 (stereo not drawn),1.01,0.064
COc1ccc(N2C(=O)CCC(C(=O)Nc3ccc(C)c(F)c3)C2c2ccc(F)cc2)cc1 (stereo not drawn),1.08,1.28
CCOC(=O)c1c(NC(=O)COc2ccc(Cl)cc2C)sc2c1CCCC2,1.05,0.666
O=C(CCNS(=O)(=O)c1ccc2c(c1)CCC(=O)N2)NCc1ccc(F)cc1,1,0.0709
CN(CCNC(=O)c1cc(=O)[nH]c2ccc(S(=O)(=O)N3CCCC3)cc12)Cc1ccccc1,1.06,1.95
Cc1ccc(S(=O)(=O)N2CCCCCC2)cc1C(=O)Nc1ccc(Br)cc1,1.03,0.841
Cc1ccc(N(C)C(=O)CCc2nc(-c3ccccc3F)no2)cc1C,0.883,-2.52
Cc1ccc(-c2nn(CC(=O)N3CCC(Cc4ccccc4)CC3)c(=O)c3ccccc23)cc1,0.97,-0.322
Cc1cc(C)n2c(Nc3ccc(C(C)C)cc3)c(-c3ccsc3)nc2n1,0.881,-3.18
Cc1sc2ncn(CC(=O)NCC(=O)Nc3ccc4c(c3)OCO4)c(=O)c2c1C,0.984,-0.387
COCCCNC(=O)CSc1nc(-c2ccccc2)[nH]c1-c1ccccc1,1,0.0755
CCN(CC)S(=O)(=O)c1ccc(C(=O)Nc2nc3ccc4nc(C)sc4c3s2)cc1,0.933,-1.08
O=C(NCCCN1CCCC1=O)c1ccc2nc(N3CCOCC3)sc2c1,1.2,1.91
O=S(=O)(Nc1cccc(-c2csc(-c3ccccc3)n2)c1)c1ccc(Cl)cc1,1.04,1.68
O=C1CN(C(=O)C2CCCCC2)C(c2ccc(F)cc2)c2cc(F)ccc2N1 (stereo not drawn),1.07,0.303
CC1(C)CC(=O)c2cc(C(=O)Nc3ccccc3)c(=O)n(-c3ccccc3)c2C1,0.79,-2.27
CCOc1ccccc1Nc1nc(-c2sc(NC(C)=O)nc2C)cs1,0.626,-5.43
FC(F)(F)c1cccc(Nc2nc(-c3ccc(-c4ccccc4)cc3)cs2)c1,0.613,-4.37
O=C(Cc1ccccc1)Nc1nnc(Cc2ccc(Cl)cc2Cl)s1,0.967,-0.714
CN(CCC#N)C(=O)Cn1nc(Cc2ccncc2)c2ccccc2c1=O,1.23,2.39
OC(CSc1ncnc2nc[nH]c12)c1ccccc1 (stereo not drawn),1.03&1.05,0.768&1.76
O=C1c2cccnc2C(=O)N1c1ccc(Cl)cc1,0.748,-4.88
COc1ccccc1C(=O)Nc1c2c(nn1-c1ccc(C)cc1C)CS(=O)(=O)C2,0.903,-1.11
O=C1Nc2cc(C(=O)N3CCC(N4CCCCC4)CC3)ccc2Sc2ccccc21,1.32,2.33
CC(CCc1ccccc1)NC(=O)Nc1cccs1 (stereo not drawn),1.06,2.53

# Assay outcomes as filed in PubChem BioAssay.
